gsp antagonist – qHTS for Antagonists of gsp, the Etiologic Mutation Responsible for Fibrous Dysplasia/McCune-Albright Syndrome: qHTS; Potency, µM (titrated, usually from 76.9 µM), inactives show at the top dose activity change, negative = inhibition, hits mostly inhibitors; hit rate 0.4% among 340,000; AID 624288, 2012; gsp-mutant cells, cAMP HTRF, 30 min; control for the full effect not named in the record; active = falling curve of any shape with a large fitted effect; inconclusive = falling curve, mostly with a smaller effect; inactive = flat or rising curve; cell line not stated here;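 note: intracellular cAMP measured with PDE inhibitor Ro 20-1724 present during compound exposure; potency is the fitted concentration of half-maximal effect; % is set by controls: 0 for no effect and ±100 for the full control effect; nearly all actives have a fitted effect of over 65% in size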
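Cells, 2000/well, grown 16–24 h in DMEM 10% FBS with 0.5 mg/ml G418, then compounds plus […] (300 uM addition stock), 30 min at 37C. cAMP read by HTRF (cAMP-d2 and anti-cAMP antibody-K in lysis buffer) after 30 min RT.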
gsp ag – qHTS for Agonist of gsp, the Etiologic Mutation Responsible for Fibrous Dysplasia/McCune-Albright Syndrome: qHTS | Potency, µM (series often up to 76.9 µM), without a hit: top-dose activation (cAMP increase), most hits filed as activators | hit rate 0.13% among 340,000 | gsp mutant cells, cAMP HTRF, 30 min; control for the full effect not named in the record; active = well fitted activation curve with a large enough effect; inconclusive = small, poorly fitted or top-dose-only effect, or another doubt; inactive = no such curve, though single readings can be large or run the other way; cell line not stated here;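 note: phosphodiesterase inhibitor Ro 20-1724 added with compounds to block cAMP breakdown; potency is the fitted concentration of half-maximal effect; nearly all actives have a fitted effect of over 60% in size; about a fifth of the inactives were tested at one dose only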
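Cells stably selected in G418 were plated at 2000/well, grown 16-24 hr, then given compounds in DMSO with the PDE inhibitor […] (300 uM solution added) for 30 min at 37C; cAMP was read by HTRF.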
D2 ag – Beta-Arrestin HTS for Positive Allosteric Modulators of the Human D2 Dopamine Receptor: Agonists; DiscoveRx PathHunter D2 beta-arrestin, luminescence, 90 min; 100% = 57 uM dopamine signal; activation, % (concentration not given with the values); D(2) dopamine receptor (Homo sapiens), P14416; hit rate 0.084% among 360,000; in the data active = activation above about 40%; inconclusive = about 15% to 40%; inactive = below about 15%; note: compound concentration not given in the record; the text of the record calls up to 30% inactive
Target sequence (P14416 whole entry, looked up): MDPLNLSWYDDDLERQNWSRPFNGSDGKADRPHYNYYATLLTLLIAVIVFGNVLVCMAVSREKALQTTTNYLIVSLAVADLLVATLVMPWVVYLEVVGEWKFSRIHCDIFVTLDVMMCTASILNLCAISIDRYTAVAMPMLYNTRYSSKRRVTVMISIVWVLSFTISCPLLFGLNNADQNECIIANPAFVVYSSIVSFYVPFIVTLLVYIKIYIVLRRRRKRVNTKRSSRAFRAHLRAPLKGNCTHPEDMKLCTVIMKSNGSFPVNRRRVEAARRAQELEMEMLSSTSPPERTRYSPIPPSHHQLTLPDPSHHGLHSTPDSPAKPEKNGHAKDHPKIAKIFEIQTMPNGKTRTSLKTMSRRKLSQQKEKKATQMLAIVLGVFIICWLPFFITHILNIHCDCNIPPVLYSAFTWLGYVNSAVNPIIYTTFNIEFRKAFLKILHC
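DiscoveRx PathHunter D2 beta-arrestin cells (2,100/well) attached overnight, then compound-stimulated 90 min at 37 C in HBSS/10 mM HEPES/0.1% Tween-20 buffer; beta-galactosidase complementation read by luminescence after 1 h at ambient temperature. Dopamine 57 uM final (EC100) as control.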
ClpP mod – qHTS Assay for Activators of ClpP | hit rate 1.9% among 340,000 | purified B. subtilis ClpP, FRET peptide cleavage, 20 min | Potency, µM (highest dose often 57.5 µM), inactives show at the top dose activity change, negative = active | ATP-dependent Clp protease proteolytic subunit (Bacillus subtilis (strain 168)), P80244; active = well fitted falling curve with a large enough effect; inconclusive = small, poorly fitted or top-dose-only effect; inactive = no such curve, though single readings can be large or run the other way; note: potency is the fitted concentration of half-maximal effect; the source files actives as falling curves though it sought activators and does not explain the sign; nearly all actives have a fitted effect of over 65% in size; many hits overshoot -100%
Target sequence (P80244 whole entry, looked up): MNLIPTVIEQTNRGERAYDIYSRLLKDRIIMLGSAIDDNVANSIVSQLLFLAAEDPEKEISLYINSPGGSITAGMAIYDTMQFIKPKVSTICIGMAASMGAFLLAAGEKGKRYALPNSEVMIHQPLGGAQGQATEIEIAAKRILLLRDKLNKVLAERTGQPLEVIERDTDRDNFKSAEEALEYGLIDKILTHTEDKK
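FRET quenching reversal measured ClpP activation: 10 microg/mL B. subtilis ClpP at pH 8 with the FRET-FV decapeptide, read at 430 nm after 320 nm excitation. The 20-min minus 0-min signal was scaled between DMSO/no-enzyme wells and ADEP (5.8 microM final).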
Menin-MLL FL inh – qHTS Assay for Inhibitors Targeting the Menin-MLL Interaction in MLL Related Leukemias: Competition With Fluorescein Labeled MLL-derived Peptide. Fluorescence polarization, fluorescein-MLL peptide displacement from menin. FP activity change, % at 61.4 µM. 290,000 tested, under 10 active; inconclusive = falling polarisation curve, or a change in total fluorescence; inactive = total fluorescence flat and polarisation flat or rising; no compound was filed as active; the % refers to the polarisation; negative = inhibition;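 note: % of control where 0% means no effect; inhibitors lower the polarisation; unlabelled MLL peptide was the positive control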
Sfp inh – qHTS Assay for Inhibitors of Bacillus subtilis Sfp phosphopantetheinyl transferase (PPTase) | AID 1490, 2009 | hit rate 3.5% among 310,000 | 4'-phosphopantetheinyl transferase ffp (Bacillus subtilis), Q9F4F7 | Potency, µM, inactives show max response, negative = inhibition, hits mostly inhibitors | Biochemical Sfp PPTase activity, qHTS; active = well fitted inhibition curve with a large enough effect; inconclusive = small, poorly fitted or top-dose-only effect, or another doubt; inactive = no such curve, though single readings can be large or run the other way;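 note: the enzyme is Sfp with the accession as filed and its product quenches rhodamine fluorescence; potency is the fitted concentration of half-maximal effect; 0% = enzyme reaction without inhibitor and -100% = no enzyme wells; top concentration of the series not given in the record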
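Reaction rates are the 30-min fluorescence difference (ex 525, em 598 nm) in wells containing 15 nM Sfp, 5 uM rhodamine-CoA and 12.5 uM BHQ-2-YbbR at pH 7.6 with 10 mM MgCl2.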
PINK1 expr mod – A Quantitative High throughput Screen to Identify Chemical Modulators of PINK1 Expression | hit rate 0.2% among 410,000 | PINK1 immunofluorescence, high-content cytometry, 24 h | Potency, µM (series often up to 76.6 µM), without a hit: at the top dose activation (PINK1 increase), hits mostly activators; active = well fitted activation curve with a large enough effect; inconclusive = small, poorly fitted or top-dose-only effect; inactive = flat fitted curve, though single readings scatter; cell line not stated here;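 note: potency is the fitted concentration of half-maximal effect; % of control where 0% means no effect; nearly all actives have a fitted effect of over 65% in size; a mitochondrial uncoupler was the plate control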
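A stable cell line was treated with compounds at 5 concentrations for 24 hours, with CCCP as control. PINK1 levels and mitochondrial localization were measured by immunofluorescence with mitochondrial, cell and nuclear markers after fixation, read by laser-scanning cytometry.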
* hit, by the source's call; u = inconclusive; x = not tested or not shown; [ ] = dose if it differs, or a comment. Compounds were not picked by outcome. About 5.1% of those tested had a hit in this group.

SMILES	gsp antagonist	gsp ag	D2 ag	ClpP mod	Menin-MLL FL inh	Sfp inh	PINK1 expr mod
O=C(NC1CCCCCCC1)C1CCN(c2nc3ccccc3o2)CC1	u	-2%	-0.6	-0.4%	1.1	-11%	-2.4%[38.3 µM]
CCOC(=O)C1=C(COC(=O)/C=C/c2cccc(Cl)c2)NC(=O)NC1C (centres undefined)	12%	16%	-0.9	0.8%	x	x	-1.2%
COc1cccc2sc(NNC(=O)COc3ccccc3)nc12	9%	-39%[inhibitor]	-0.5	-0.3%	0.6	u	1.5%
Cc1ccc(CNCc2ccco2)cc1	10%	-27%	-1.1	1.1%	2.8	-6%	-1.4%
Cc1cccc(NC(=O)c2ccc(S(=O)(=O)N(C)c3ccccc3)cc2)n1	u	4%	-2.0	x	x	x	-0.7%
CCOC(=O)C1CCN(C(=O)c2ccc(N3CCCC3=O)cc2)CC1	8%	-20%	0.3	-0.5%	x	x	6.8%
COc1ccc(NC(=O)NCCCN2CCCC2=O)cc1	-13%	3%	-3.7	-1.0%	5.6	13%	-1.2%
CCOC(=O)c1sc(SC)c2c1CCCC2=O	-12%	u	4.3	1.5%	u	18%	-0.6%
Cn1cc(C(=O)N2CCN(C(=O)c3ccco3)CC2)c2c3ccccc3n(C)c2c1=O	-7%	18%	-0.4	14µM*	0.7	8%	5.4%[38.3 µM]
CC12CCC(C(=O)N3CCC(Cc4ccccc4)CC3)(C(=O)C1=O)C2(C)C (centres undefined)	-8%	u	4.0	x	-7.7	10%	-0.2%
CN(C)CCCn1c2c(c(SCC(=O)Nc3nccs3)nc1=O)CCC2	10%	11%	-0.8	-6.8%	x	x	0.8%
CC(C)[C@H](NC(=O)c1ccccc1)C(=O)OCC(=O)N1CCN(C(=O)c2ccco2)CC1	x	-6%[15.4 µM]	0.1	x	1.4	22%	0.6%
N/C(=N\OC(=O)c1cccc(Cn2cc(C(F)(F)F)ccc2=O)c1)c1ccc(Cl)cc1	-21%	-3%[15.4 µM]	u	x	-4.0	11%	0.2%
CCOc1ccc(NC2=CC(=O)CCC2)cc1	5%	-1%	5.4	x	-9.6	0%	1.0%
CCN(CC)S(=O)(=O)c1cccc(NC(=O)c2cncc(Br)c2)c1	0%	29%	2.2	-0.1%	-1.9	0%	2.3%
COc1cccc(NC(=O)C2CCN(S(=O)(=O)c3ccccc3)CC2)c1	-11%	4%	-2.8	-1.5%	x	7%	-0.4%
COc1ccc(C)cc1NC(=O)C1CCCCC1C(=O)O (centres undefined)	7%	-10%	-0.7	0.5%	3.5	11%	1.1%
CC(C)(C)c1ccc(C(=O)Nn2c(CCC(=O)O)ccc2-c2cccs2)cc1	-33%	-21%	-1.7	-1.4%	-1.0	56µM*	-2.5%[38.3 µM]
COc1ccc(C2CC(c3ccc4ccccc4c3)=NN2C(=O)CN2CCC(C(N)=O)CC2)cc1 (centres undefined)	6%	-4%[15.4 µM]	-1.0	-0.3%	16	u	1.8%
COC(=O)c1ccc(N2C(=O)C3CC(C)=C(C)CC3C2=O)cc1 (centres undefined)	0%	12%[15.4 µM]	-1.2	x	-1.2	3%	0.8%
O=C1c2cccc3cccc(c23)C(=O)N1CCCc1n[nH]c(=S)n1-c1ccccc1	-8%	1%[15.4 µM]	-1.4	x	-6.0	-13%	0.3%
O=C(CN1C(=O)NC2(CCCC2)C1=O)NCCc1ccc(F)cc1	3%	16%[15.4 µM]	-2.9	0.0%	x	x	0.0%
CCn1c(SCC(=O)Nc2cc(C)on2)nnc1-c1ccncc1	8%	24%	-1.2	-7.3%	1.0	7%	2.0%[38.3 µM]
O=C(CN(C(=O)CCC(=O)Nc1ccccn1)c1ccc2c(c1)OCO2)NCc1ccco1	5%	19%	-3.2	1.5%	1.1	14%	0.6%
Nc1ccc(C(=O)Nc2ccc3nc(-c4cccnc4)[nH]c3c2)cc1	-5%	0%	-0.7	-11%	1.6	10%	-0.4%

Continued:
SMILES	gsp antagonist	gsp ag	D2 ag	ClpP mod	Menin-MLL FL inh	Sfp inh	PINK1 expr mod
Cn1c(=O)c2cc(S(=O)(=O)NCCC(=O)Nc3ccc(Cl)cc3)ccc2n(C)c1=O	-6%	u	0.2	2.2%	u	9%	-2.7%[38.3 µM]
Cn1c(N)c(C(=O)CSc2nnc(C3CC3)n2N)c(=O)n(C)c1=O	5%	u	-1.5	0.4%	x	x	-0.4%
Cc1ccc(Cn2c(-c3nonc3N)nc3ccccc32)cc1	-6%	-10%	1.7	-3.5%	-0.1	17%	16%
Cc1ccc(S(=O)(=O)N2CCCSCC2)cc1	1%	26%	-1.4	2.3%	0.9	10%	1.8%
CC(OCC(O)CN(C)Cc1nc2ccccc2c(=O)[nH]1)c1ccc(Cl)cc1 (centres undefined)	-4%	u	-4.5	-4.4%	2.9	-48%	1.1%
CCOC(=O)C1=C(c2ccccc2)NC(SCC(N)=O)=C(C#N)C1c1cccnc1 (centres undefined)	-28%	-15%	-0.7	3.7%	-1.7	-4%	-0.3%
Cc1cccn2c(=O)c(/C=C(\C#N)S(=O)(=O)c3ccccc3)c(N3CCN(C)CC3)nc12	-5%	29%	-2.0	-13%	-14	2%	-0.2%
COC(=O)CSc1nnc(-c2ccc(S(=O)(=O)NCc3cccs3)cc2)o1	-19%	-19%	-1.2	0.2%	0.6	11%	-1.1%
CCSC1=NCCN1S(=O)(=O)c1ccc(NC(C)=O)cc1	-9%	-22%	1.8	0.4%	-6.4	10%	-0.5%
O=C1c2cccc3cccc(c23)C(=O)N1Cc1ccccc1	1%	u	-4.1	-3.0%	-3.2	19%	12%
O=C1NC(=O)/C(=C\c2ccc(Cl)nc2)S1	u	2%	-2.8	-0.7%	0.8	-7%	3.5%
C=CCc1cccc(CNc2nc3ccccc3n2C)c1O	-24%	-4%	-3.2	1.9%	1.9	-8%	5.6%
Cc1cccc(NC(=O)C(c2ccccc2Cl)N2CCOCC2)c1 (centres undefined)	2%	-18%[15.4 µM]	-2.9	x	0.3	17%	1.1%
N#Cc1c(-c2ccccc2)cc(-c2ccc(O)cc2)nc1N	-9%	25%	-4.2	4.2%	0.8	-13%	2.4%
COc1cccc2sc3ccc(C#CC4(N)CCCCC4)cc3c(=O)c12	15%	5%	-1.5	-2.0%	-2.0	79µM*	-0.9%
Cc1ccc(NC(=O)COC(=O)CCn2c(C)csc2=O)c([N+](=O)[O-])c1	-4%	42%[15.4 µM]	1.1	x	x	x	-3.1%
NC(=O)CN1CCN(S(=O)(=O)c2ccc(Br)cc2)CC1	4%	-9%[15.4 µM]	-2.5	0.4%	2.9	12%	0.4%
COc1ccc(OCC(=O)Nc2ccccc2C(=O)NC(C)C)cc1	10%	u	-1.7	x	-0.3	-6%	5.1%
CC(C)Oc1ccc(C2CC(=O)N(c3ccc(C(=O)O)cc3)C2=O)cc1 (centres undefined)	5%	u	-1.4	x	0.2	22%	5.6%
Cc1nc(C/C(=N\N)c2ccc(O)cc2O)cs1	-25%	-11%[15.4 µM]	-6.2	0.5%	28	-15%	13%
Cc1nc2ccccc2nc(=O)c1NNc1ccc([N+](=O)[O-])cc1	-19%	1%[15.4 µM]	4.0	x	12	u	-1.5%
Cc1cc(Nc2ccc(Br)cc2)nc2ccccc12	-6%	-35%[inhibitor]	-3.9	-17%	x	x	15%
O=C(NCc1ccccc1)C1(c2ccccc2)CCN(S(=O)(=O)c2ccccc2)CC1	-12%	-14%	-1.1	1.1%	1.7	-16%	u
CC1(c2ccc(OCC(N)=O)cc2)NC(=O)NC1=O (centres undefined)	3%	3%	1.3	x	-1.8	0%	-1.3%
COc1cc(/C=C(/C#N)C(=O)Nc2ccccc2)c(Br)cc1OCc1ccc(C(=O)O)cc1	-32%	17%[15.4 µM]	-0.9	x	1.6	0%	1.9%

(listing goes on)
SMILES	gsp antagonist	gsp ag	D2 ag	ClpP mod	Menin-MLL FL inh	Sfp inh	PINK1 expr mod
COc1cccc(S(=O)(=O)N(C)C[C@@H]2OCc3cnnn3CCCC(=O)N([C@@H](C)CO)C[C@@H]2C)c1	x	-29%	-1.3	-3.6%	x	x	-1.2%
O=C(NCCN1CCOCC1)/C(=C/c1ccc(Cl)cc1)NC(=O)c1ccccc1	1%	-12%[15.4 µM]	1.4	x	x	11%	-1.8%
O=C(NCC1CCCO1)c1cncc(Br)c1 (centres undefined)	-23%	-57%[inhibitor]	1.9	-14%	3.5	7%	-1.0%
CCC(Sc1nc(N)c(NC(=O)c2ccc(Br)o2)c(=O)[nH]1)C(=O)O (centres undefined)	15%	-6%[15.4 µM]	-2.8	1.2%	x	10%	1.4%
CN(CCO)c1cc(N2CCC3(CC2)OCCO3)c2nonc2c1[N+](=O)[O-]	-3%	u	-5.6	-2.6%	u	6%	0.1%
CCOc1ccc(NC(=O)C2CCCN2C(=O)Oc2ccccc2)cc1 (centres undefined)	9%	4%[15.4 µM]	-5.1	x	x	5%	-0.5%
C=CCN(c1ccc(C(=O)N2CCN(c3ccc(F)cc3)CC2)cc1)S(C)(=O)=O	3%[15.4 µM]	4%	-0.4	-6.1%	1.0	8%	0.2%
S=C(NCCc1ccccc1)Nc1ncccn1	5%	13%[15.4 µM]	-3.6	-1.4%	x	x	-0.2%
COc1cc(-c2c(C#N)c(=O)[nH]c3c2c(C)nn3-c2ccccc2)ccc1O	u	-2%	-0.1	-11%	0.8	-3%	-1.3%

Compound activity: PubChem, National Center for Advancing Translational Sciences (NCATS)
